High-throughput results: PubChem, Broad Institute
FGF22 binding: FGF22 (human) thermal shift binding. 340,000 tested, 1.5% active. recombinant FGF22 thermal shift, SYPRO orange fluorescence; percent of sucrose octasulfate shift, DMSO zero. Q9HCT0. AID 651658. calls only at 9.99 µM;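 active = melting point raised past a set limit in the mean and every replicate; three in four hits are not shown here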
Target sequence (Q9HCT0 whole entry, looked up): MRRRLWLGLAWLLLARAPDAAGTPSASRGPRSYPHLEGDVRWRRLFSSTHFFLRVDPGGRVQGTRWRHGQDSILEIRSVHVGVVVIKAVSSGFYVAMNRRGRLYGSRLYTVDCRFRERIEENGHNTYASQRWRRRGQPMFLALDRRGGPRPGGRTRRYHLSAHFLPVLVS
MLL AF4-AF9 inh: MLL-AF4/AF9 protein interaction inhibition. P42568. AlphaScreen, biotin-AF4 peptide binding to FLAG-AF9. inhibition, % at 10 µM. 350,000 tested, 0.47% active;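 active = every replicate reaching a set inhibition limit, whatever the replicate mean, cut at about 25% in these data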;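 note: 0% = plate neutral control median and 100% = total signal loss; the record names both 10 and 1 µM as test concentration; the first replicate is given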
Target sequence (P42568 whole entry, looked up): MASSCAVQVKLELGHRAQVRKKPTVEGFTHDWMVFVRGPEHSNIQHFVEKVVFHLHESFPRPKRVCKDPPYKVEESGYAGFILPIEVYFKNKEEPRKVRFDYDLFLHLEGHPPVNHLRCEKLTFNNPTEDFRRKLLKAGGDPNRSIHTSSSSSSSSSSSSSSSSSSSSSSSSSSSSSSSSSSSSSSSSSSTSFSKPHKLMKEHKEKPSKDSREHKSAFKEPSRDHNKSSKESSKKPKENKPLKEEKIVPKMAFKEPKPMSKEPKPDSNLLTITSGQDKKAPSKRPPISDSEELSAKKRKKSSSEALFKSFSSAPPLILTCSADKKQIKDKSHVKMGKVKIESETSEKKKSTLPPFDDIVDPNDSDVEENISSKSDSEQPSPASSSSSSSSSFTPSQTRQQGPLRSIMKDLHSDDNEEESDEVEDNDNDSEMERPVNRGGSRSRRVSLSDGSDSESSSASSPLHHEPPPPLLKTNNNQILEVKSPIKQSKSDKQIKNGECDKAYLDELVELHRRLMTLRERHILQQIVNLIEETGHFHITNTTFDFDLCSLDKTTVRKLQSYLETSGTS
* = called active by the depositor; i = inactive; + = active, no number.

Below each compound: MLL AF4-AF9 inh	FGF22 binding
- Cc1ccc(S(=O)(=O)N(C)C[C@@H]2Oc3ncc(C#CCC(C)C)cc3C(=O)N([C@@H](C)CO)C[C@H]2C)cc1
  0.1	i
- Cn1cnc(CCNC(=O)C[C@@H]2CC[C@@H]3[C@H](COC[C@@H](O)CN3C(=O)C3CC3)O2)c1
  -1.9	i
- N#C[C@@H]1[C@@H](c2ccc(-c3ccccc3F)cc2)[C@@H](CO)N1C(=O)Cc1ccccc1
  -1.1	i
- Cc1cc(C(=O)Nc2cccc3c2O[C@H](CN(C)C(=O)Nc2ccccc2)[C@@H](C)CN([C@@H](C)CO)C3=O)n(C)n1
  -2.2	i
- C[C@@H]1CCCCO[C@@H](CN(C)C(=O)C2CCCCC2)[C@@H](C)CN([C@@H](C)CO)C(=O)c2cc(NC(=O)Nc3ccccc3)ccc2O1
  2.3	i
- C[C@H]1CN([C@@H](C)CO)C(=O)c2cccc(NC(=O)c3ccc(-c4nccs4)cc3)c2O[C@H]1CN(C)S(=O)(=O)c1ccccc1
  -0.8	i
- CO[C@H]1CN(C)C(=O)c2ccc(NC(=O)c3cccc(F)c3)cc2OC[C@@H](C)NC[C@H]1C
  -1.7	i
- COc1ccc2c3c(n(C)c2c1)[C@H](CO)N(C)CC31CN(C(=O)c2ccccc2F)C1
  1.0	i
- CO[C@@H]1CN(C)C(=O)c2cc(NC(C)=O)ccc2OC[C@@H](C)N(Cc2ccc(-c3ccccn3)cc2)C[C@H]1C
  3.1	i
- CCCNC(=O)N1[C@@H]2CN(C(=O)C3CCOCC3)c3ccccc3[C@@H]2[C@@H]1CO
  -0.7	i
- C[C@@H]1CN([C@H](C)CO)C(=O)c2cc(C#Cc3ccccc3F)cnc2O[C@H]1CN(C)S(C)(=O)=O
  -2.1	i
- C[C@@H]1CCCCO[C@@H](CN(C)C(=O)Nc2cccc3ccccc23)[C@@H](C)CN([C@@H](C)CO)C(=O)c2cc(NC(=O)c3ccccc3)ccc2O1
  2.6	i
- O=C(C[C@@H]1CC[C@H]2[C@@H](COC[C@H](O)CN2C(=O)Nc2cccc(Cl)c2)O1)NCC1CCCCC1
  0.0	i
- C[C@@H]1CN([C@@H](C)CO)C(=O)c2cccc(NS(C)(=O)=O)c2O[C@@H]1CN(C)C(=O)NC1CCCCC1
  0.9	i
- C[C@@H]1CN([C@@H](C)CO)C(=O)c2cc(NS(C)(=O)=O)ccc2O[C@@H](C)CCCCO[C@@H]1CN(C)Cc1ccncc1
  -2.3	i
- C[C@@H]1CN([C@@H](C)CO)S(=O)(=O)c2ccc(C#C[C@@H](C)O)cc2O[C@H]1CN(C)C(=O)CN(C)C
  -1.0	i
- Cc1ccc(S(=O)(=O)Nc2ccc3c(c2)C(=O)N([C@@H](C)CO)C[C@@H](C)[C@@H](CN(C)S(=O)(=O)c2ccc(C)cc2)O3)cc1
  -1.0	i
- C[C@@H]1CN([C@@H](C)CO)C(=O)c2cccc(NS(=O)(=O)c3cccs3)c2O[C@H]1CN(C)S(=O)(=O)c1ccccc1
  -3.0	i
- CC(C)NC(=O)N(C)C[C@@H]1Oc2ncc(C#Cc3ccncc3)cc2C(=O)N([C@@H](C)CO)C[C@@H]1C
  -7.3	i
- COc1ccc(S(=O)(=O)N2C[C@@H](O)COC[C@@H]3O[C@H](CC(=O)NCc4ccc(Cl)c(Cl)c4)CC[C@H]32)cc1
  1.4	i
- O=C(C[C@@H]1C=C[C@@H](NC(=O)Nc2ccc(C(F)(F)F)cc2)[C@H](CO)O1)NCc1cc(F)cc(F)c1
  -0.1	i
- CO[C@@H]1CN(C)C(=O)c2ccc(NS(=O)(=O)c3ccccc3)cc2OC[C@H](C)N(C)C[C@@H]1C
  -0.6	i
- COc1ccc(S(=O)(=O)N(C)C[C@@H]2OCCCC[C@@H](C)Oc3ccc(NC(=O)NC4CCCCC4)cc3C(=O)N([C@H](C)CO)C[C@@H]2C)cc1
  -2.9	i
- C[C@H]1CCCCO[C@@H](CN(C)C(=O)c2ccccc2)[C@@H](C)CN([C@@H](C)CO)C(=O)c2cc(NS(=O)(=O)c3ccc(Cl)cc3)ccc2O1
  -1.2	i
- CCC(=O)N1CC2(C1)[C@@H](c1ccc(C3=CCCC3)cc1)[C@@H](CO)N2C(=O)COC
  -1.7	i
- Cc1noc(C)c1NC(=O)NCC[C@@H]1CC[C@@H](NC(=O)c2ccc(F)cc2)[C@H](CO)O1
  -5.1	i
- CC=Cc1ccc2n(c1=O)C[C@@H]1[C@@H](CO)[C@H](C(=O)N(C)C)N(CC3CCCCC3)[C@H]21 (mixture of isomers)
  1.1	i
- CN(C)C(=O)[C@@]1(CCS(=O)(=O)c2ccccc2)N=C(c2ccc(OCCCO)cc2)O[C@H]1c1ccccc1
  1.5	i
- C[C@H](CO)N1C[C@H](C)[C@H](CN(C)Cc2ccc(C(=O)Nc3ccccc3N)cc2)Oc2c(cccc2N(C)C)C1=O
  2.6	i
- COc1ccc(C#Cc2ccc([C@H]3[C@H](CO)N4CCCCN(C(=O)Nc5ccccc5)C[C@@H]34)cc2)cc1
  -1.0	i
- O=C(C[C@H]1CC[C@@H]2[C@H](COC[C@@H](O)CN2C(=O)c2ccncc2)O1)NCc1cc(F)cc(F)c1
  -14	i
- CCC(=O)N1[C@@H](CO)[C@@H](c2ccccc2)C12CN(C(=O)Nc1ccccc1F)C2
  -5.2	i
- COc1ccc(NC(=O)N2C[C@@H]3[C@H](c4ccccc42)[C@@H](CO)N3C(=O)C2CCCCC2)cc1
  -0.6	i
- C[C@@H]1CN([C@@H](C)CO)S(=O)(=O)c2ccc(C#Cc3ccncc3)cc2O[C@H]1CN(C)C(=O)C1CCCCC1
  -2.4	i
- C[C@@H]1CN([C@@H](C)CO)C(=O)Cc2cc(NC(=O)CCCCCC(=O)Nc3ccccc3N)ccc2O[C@@H]1CN(C)Cc1ccc(C(F)(F)F)cc1
  -1.4	i
- CCC(=O)Nc1ccc2c(c1)OC[C@@H](C)N(C(=O)Cc1cccnc1)C[C@@H](C)[C@@H](OC)CN(C)C2=O
  -1.1	i
- C[C@@H]1CN([C@@H](C)CO)C(=O)Cc2cc(NS(=O)(=O)c3ccc(F)cc3)ccc2O[C@H]1CN(C)S(=O)(=O)c1cccs1
  0.1	i
- COc1ccc(NC(=O)Nc2ccc3c(c2)C(=O)N([C@@H](C)CO)C[C@@H](C)[C@@H](CN(C)S(=O)(=O)c2ccc(OC)cc2)O3)cc1
  4.4	i
- O=C(C[C@H]1C[C@H]2c3cc(NC(=O)c4cccnc4)ccc3O[C@H]2[C@@H](CO)O1)NCc1ccncc1
  1.3	i
- CC(C)NC(=O)N(C)C[C@H]1Oc2ccc(NC(=O)C3CC3)cc2CC(=O)N([C@H](C)CO)C[C@@H]1C
  -0.8	i
- C[C@@H]1CN([C@@H](C)CO)C(=O)c2cc(NS(=O)(=O)c3ccccc3)ccc2O[C@@H]1CN(C)CC1CC1
  -1.2	i
- CO[C@H]1CN(C)C(=O)c2ccc(NC(C)=O)cc2OC[C@@H](C)NC[C@@H]1C
  -1.6	i
- CO[C@@H](CN(C)S(=O)(=O)c1cccc(Cl)c1)[C@@H](C)CN([C@H](C)CO)S(=O)(=O)c1ccc(Cl)cc1
  0.6	i
- Cc1nnc(-n2cccc2)s1
  -6.0	i
- COc1cccc(S(=O)(=O)Nc2ccc3c(c2)C(=O)N(C)C[C@@H](OC)[C@@H](C)CN(C(=O)Cc2cccnc2)[C@H](C)CO3)c1
  -1.2	i
- CO[C@H]1CN(C)C(=O)c2ccc(NC(=O)Nc3c(C)noc3C)cc2OC[C@H](C)NC[C@@H]1C
  -3.4	i
- C[C@H](CO)N1C[C@H](C)[C@@H](CN(C)C(=O)C2CCCCC2)OCCCC[C@H](C)Oc2ccc(NS(=O)(=O)c3ccc(Cl)cc3)cc2C1=O
  -0.4	i
- C[C@H]1CN([C@@H](C)CO)C(=O)c2cc(NC(=O)Nc3ccc(C(F)(F)F)cc3)ccc2O[C@H]1CN(C)S(=O)(=O)c1ccccc1
  -7.2	i
- COc1cccc(NC(=O)N[C@@H]2CC[C@@H](CC(=O)NCc3ccccn3)O[C@@H]2CO)c1
  -0.1	i
- C[C@@H]1CN([C@@H](C)CO)C(=O)c2cc(NS(=O)(=O)c3ccccc3)ccc2O[C@@H](C)CCCCO[C@@H]1CN(C)S(=O)(=O)c1cccs1
  -2.5	i
- O=C(Nc1cc(Cl)cc(Cl)c1)N[C@H]1CC[C@H](CCNS(=O)(=O)c2cccc(F)c2)O[C@H]1CO
  1.5	i
- C[C@@H]1CN([C@@H](C)CO)C(=O)c2cccc(NC(=O)c3ccc(-c4nccs4)cc3)c2O[C@@H]1CN(C)C(=O)NC1CCCCC1
  3.7	i
- Cc1ccc(S(=O)(=O)N(C)C[C@@H]2OCCCC[C@@H](C)Oc3ccc(NC(=O)Nc4c(C)noc4C)cc3C(=O)N([C@H](C)CO)C[C@H]2C)cc1
  4.2	i
- COc1cccc(NC(=O)N(C)C[C@H]2Oc3ncc(/C=C/c4ccccc4)cc3C(=O)N([C@@H](C)CO)C[C@@H]2C)c1
  8.5	i
- CN(C)C(=O)c1cccc(-c2ccc([C@@H]3[C@H]4CN(CCC(F)(F)F)CCCCN4[C@H]3CO)cc2)c1
  2.3	i
- Cc1ccc(S(=O)(=O)Nc2ccc3c(c2)CC(=O)N([C@H](C)CO)C[C@H](C)[C@H](CN(C)S(C)(=O)=O)O3)cc1
  -1.1	i
- COc1cccc(NC(=O)N[C@@H]2CC[C@@H](CC(=O)Nc3ccccc3)O[C@@H]2CO)c1
  0.5	i
- O=S(=O)(c1ccccc1F)N1CC[C@H]2[C@H](CO)Nc3ccc(C4=CCCCC4)cc3[C@H]21
  -2.7	i
- CN(C)CC(=O)N1CCCCN2[C@H](CO)[C@H](c3ccc(-c4cccnc4)cc3)[C@H]2C1
  -4.2	i
- C[C@@H]1CN([C@@H](C)CO)C(=O)c2cc(-c3ccccc3F)cnc2O[C@@H]1CN(C)Cc1ccccc1F
  2.4	i

(further entries)
Below each compound: MLL AF4-AF9 inh	FGF22 binding
- C[C@H]1CN([C@@H](C)CO)C(=O)c2cc(NC(=O)CCCCCC(=O)Nc3ccccc3N)ccc2O[C@@H]1CN(C)Cc1ccc2c(c1)OCO2
  -0.9	i
- C[C@@H]1CCCCO[C@@H](CN(C)C(=O)Nc2ccc(F)cc2)[C@H](C)CN([C@H](C)CO)C(=O)c2cc(NC(=O)c3ccccc3)ccc2O1
  -0.1	i
- O=C(NC1CCCC1)[C@H]1[C@H](CO)[C@H]2Cn3c(ccc(-c4ccncc4)c3=O)[C@H]2N1CCc1ccccc1
  0.8	i
- C[C@H](CO)N1C[C@H](C)[C@H](CN(C)Cc2ccc(Cl)c(Cl)c2)Oc2ccc(NC(=O)Nc3ccccc3)cc2CC1=O
  -0.4	i
- COCC(=O)N1CC2(CCN(C(=O)NC(C)C)CC2)c2c(n(C)c3cc(OC)ccc23)[C@@H]1CO
  -1.4	i
- C[C@H](CO)N1C[C@H](C)[C@H](CN(C)C(=O)Nc2ccc(C(F)(F)F)cc2)Oc2ccc(NC(=O)C3CCCCC3)cc2CC1=O
  -3.6	i
- COc1ccc(S(=O)(=O)N2C[C@@H](O)COC[C@@H]3O[C@@H](CC(=O)NCCN4CCCCC4)CC[C@H]32)cc1
  -15	i
- O=C(C[C@@H]1C[C@H]2c3cc(NC(=O)C4CCC4)ccc3O[C@H]2[C@H](CO)O1)NCc1ccc2c(c1)OCO2
  0.1	i
- CO[C@@H]1CN(C)C(=O)c2cc(NC(=O)c3ccccc3)ccc2OC[C@H](C)N(C)C[C@H]1C
  -1.8	i
- Cc1noc(C)c1S(=O)(=O)Nc1ccc2c(c1)C(=O)N([C@H](C)CO)C[C@@H](C)[C@H](CN(C)S(=O)(=O)c1ccc(F)cc1)OCCCC[C@@H](C)O2
  0.7	i
- C/C=C/c1cnc2c(c1)C(=O)N([C@@H](C)CO)C[C@H](C)[C@@H](CN(C)C(=O)c1ccc3c(c1)OCO3)O2
  -0.3	+
- O=C(C[C@@H]1C=C[C@H](NC(=O)Nc2cc(F)ccc2F)[C@H](CO)O1)NCCCN1CCOCC1
  -1.9	i
- C[C@H](CO)N1C[C@H](C)[C@H](CN(C)CC2CC2)Oc2ccc(NC(=O)Nc3ccc(C(F)(F)F)cc3)cc2CC1=O
  -0.6	i
- COc1ccc2c3c(n(C)c2c1)[C@@H](CO)N(Cc1nccs1)CC31CCN(C(C)=O)CC1
  5.6	i
- CCCNC(=O)N(C)C[C@H]1Oc2cc(-c3cncnc3)ccc2S(=O)(=O)N([C@@H](C)CO)C[C@H]1C
  -1.4	i

Whole records from above. Values in the order: MLL AF4-AF9 inh, FGF22 binding
O=C(C[C@@H]1C[C@H]2c3cc(NC(=O)C4CCC4)ccc3O[C@H]2[C@H](CO)O1)NCc1ccc2c(c1)OCO2 as listed: 0.1, i
CCCNC(=O)N(C)C[C@H]1Oc2cc(-c3cncnc3)ccc2S(=O)(=O)N([C@@H](C)CO)C[C@H]1C as listed: -1.4, i
COc1ccc2c3c(n(C)c2c1)[C@@H](CO)N(Cc1nccs1)CC31CCN(C(C)=O)CC1 as listed: 5.6, i

A portion from the list above, as a working copy:
Below each compound: MLL AF4-AF9 inh	FGF22 binding
- O=C(C[C@@H]1C=C[C@H](NC(=O)Nc2cc(F)ccc2F)[C@H](CO)O1)NCCCN1CCOCC1
  -1.9	i
- C[C@H](CO)N1C[C@H](C)[C@H](CN(C)CC2CC2)Oc2ccc(NC(=O)Nc3ccc(C(F)(F)F)cc3)cc2CC1=O
  -0.6	i
- COc1ccc2c3c(n(C)c2c1)[C@@H](CO)N(Cc1nccs1)CC31CCN(C(C)=O)CC1
  5.6	i
- CCCNC(=O)N(C)C[C@H]1Oc2cc(-c3cncnc3)ccc2S(=O)(=O)N([C@@H](C)CO)C[C@H]1C
  -1.4	i

The list is partial (hit frequency here may not be typical).
